Bioassay records: PubChem BioAssay, ICCB-Longwood Screening Facility, Harvard Medical School
GIV Gai3 FP: inhibitors of GIV peptide binding to Galpha-i3, primary screen, biochemical, fluorescence polarization, FITC-GIV GBA peptide, rat Galphai3; Guanine nucleotide-binding protein G(i) subunit alpha-3 (Rattus norvegicus), P08753; 90 min; stronger effect = lower value; scaled: aluminum fluoride 0%, vehicle 100%; percent of control (FP), % (no concentration beside the values); 0.42% of 210,000 active; AID 1224905, 2016;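 active = replicate mean at 85% of control or lower, very high polarization wells dropped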;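 also: wells of about 15 µL received 100 nL stock; the first replicate is given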
Target sequence (P08753 whole entry, looked up): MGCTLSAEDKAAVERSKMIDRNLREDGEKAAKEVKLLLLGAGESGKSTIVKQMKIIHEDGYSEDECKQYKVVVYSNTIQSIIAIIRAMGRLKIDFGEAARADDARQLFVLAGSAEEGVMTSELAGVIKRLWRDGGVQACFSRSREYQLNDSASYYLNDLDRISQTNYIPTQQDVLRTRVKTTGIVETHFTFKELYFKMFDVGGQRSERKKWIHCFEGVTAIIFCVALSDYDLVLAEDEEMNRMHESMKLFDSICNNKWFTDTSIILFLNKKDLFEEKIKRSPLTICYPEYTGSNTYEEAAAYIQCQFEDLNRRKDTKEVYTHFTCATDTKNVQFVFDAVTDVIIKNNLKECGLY
Starred values were filed as active, the others as inactive.

GIV Gai3 FP | Compound
105 | O=S1(=O)c2ccccc2S(=O)(=O)N1c1ccc(Oc2ccc3ccccc3c2Cl)c(Cl)c1
104 | CC(=O)N1CCN(C(=O)c2ccc(N3CC4CC(C3)c3cccc(=O)n3C4)c(NC(=O)c3ccc(C(C)(C)C)cc3)c2)CC1 (centres undefined)
103 | CN(c1ccc(Br)cc1)S(=O)(=O)c1ccc2[nH]cc(C(=O)NCc3cccnc3)c(=O)c2c1
102 | CCOC(=O)C1=C(N)Oc2cc(O)ccc2C1c1ccc([N+](=O)[O-])cc1 (centres undefined)
103 | COc1ccc(-c2[nH]nc3c2C(c2ccc(OC(=O)N4CCOCC4)c(OC)c2)C(C#N)=C(N)O3)cc1 (centres undefined)
18* | Nc1ccc2nc3c(=O)[nH]c(=O)[nH]c3nc2c1
108 | CCCc1[nH]n(-c2ccc(F)cc2)c(=O)c1C=NCCCn1ccnc1
103 | Cc1nnc(-c2c(S(=O)(=O)N3CCC(Cc4ccccc4)CC3)c(C)n(C)c2C)o1
105 | CC1CCCC2(C1)NCCN=C2NCc1ccccc1Cl (centres undefined)
101 | CC1=C(C(=O)OCCOc2ccccc2)C(c2ccccc2I)NC(=O)N1C (centres undefined)
99 | COc1cc(C2Nc3ccc(C)cc3[C@H]3OCC[C@@H]23)cc(Cl)c1OC (some centres undefined)
103 | CCc1cc(-c2csc(S(=O)(=O)N3CCc4ccccc4C3)c2)on1
103 | Brc1cccc(-c2noc(CSc3nccn3-c3ccccc3)n2)c1
120 | COc1ccc(/C=C2\N=C(c3ccc(Cl)cc3)N(c3ccc(Cl)c(C)c3)C2=O)cc1OC
108 | COc1ccc(NC(=O)N2CCCC2c2cc(C)no2)cc1OC (centres undefined)
108 | Cc1[nH]n(-c2ccc(Cl)cc2)c(=O)c1C=Nc1ccc(S(=O)(=O)N2CCOCC2)cc1
117 | CCCNC(=O)Nc1nc(CC(=O)OCC)cs1
122 | COc1ccc(-c2csc(Cc3nc(-c4ccc(Cl)cc4)no3)n2)cc1
117 | Cc1ccc2c(c1)N(C(=O)CCC1CCCCC1)C(C)(C)c1ssc(=S)c1-2
107 | CCOC(=O)N1CCN(c2ncnc3c2c(-c2ccccc2)cn3-c2ccc(Br)cc2)CC1
104 | COc1ccc(C2Oc3ccc(Cl)cc3C3CC(c4ccccc4)=NN32)cc1OC (centres undefined)
97 | COc1cccc(CSc2ccc(-n3nc4c(c3C)CCC4)nn2)c1
117 | COC(=O)CSc1nc(-c2ccccc2)cc(-c2ccc(OC)cc2)c1C#N
117 | Cc1ccccc1C(=O)N1CCc2c([nH]c3ccccc23)C1
96 | O=S(=O)(c1cc(-c2nnc(C3CC3)o2)co1)N1CCc2ccccc2C1
104 | N#Cc1ccc(-c2ccncc2)nc1SCC(=O)Nc1ccccc1[N+](=O)[O-]
101 | Cc1noc(-c2ccc(-c3noc(-c4ccccc4Cl)n3)cc2)n1
104 | Cc1cccc(C(=O)N2CCN(Cc3noc(-c4ccccc4)n3)CC2)c1
98 | Cc1ccc(C)c(S(=O)(=O)Nc2cccc(-c3ccc4ccccc4n3)c2)c1
102 | Cc1c(C(=O)Nc2cnc3ccccc3c2)sc2ncnc(N3CCC(C)CC3)c12

A few values from the results shown.
Cc1ccccc1C(=O)N1CCc2c([nH]c3ccccc23)C1 in GIV Gai3 FP → 117
O=S(=O)(c1cc(-c2nnc(C3CC3)o2)co1)N1CCc2ccccc2C1 in GIV Gai3 FP → 96
Cc1c(C(=O)Nc2cnc3ccccc3c2)sc2ncnc(N3CCC(C)CC3)c12 in GIV Gai3 FP → 102

Other compounds.
GIV Gai3 FP | Compound
98 | Cc1cc(C)c(NS(=O)(=O)c2cc(-c3nc(C)c(C)s3)sc2C)c(C)c1
108 | O=C(NCC(=O)N1CCN(c2ccccc2)CC1)c1ccncc1
102 | Cc1nc(-c2ccc3c(c2)n(CC(=O)NC2CC2)c(=O)n3C(C)C)no1
109 | Cc1cccc(-n2nc3c(c2NC(=O)c2ccc(S(=O)(=O)N4CCCCC4)cc2)CSC3)c1C
115 | COc1cccc(NS(=O)(=O)c2cc(C(=O)N3CCCC3)ccc2NCCc2ccc(Cl)cc2)c1
104 | O=C(NCCc1ccccn1)c1sc2ncccc2c1-n1cccc1
127 | COc1cccc(C(=O)N2c3ccccc3N3C(c4c(C)cc(C)cc4C)=NON23)c1
112 | O=C1c2[nH]nc(-c3ccccc3)c2C(c2cccc(F)c2)N1c1cccc(C(F)(F)F)c1 (centres undefined)
111 | O=C(Nc1cccc(Br)c1)c1nc(N2CCOCC2)c2oc3ccccc3c2n1
108 | CCCOc1ccc(N=c2ssc3c2-c2ccccc2NC3(C)C)cc1
102 | Cc1nnc(-c2ccc3ccn(CC(=O)N(C)C4CCCCC4)c3c2)o1
104 | COc1ccc(CNc2c(C(=O)Nc3cccc(F)c3)cnc3c2c(C)nn3-c2ccccc2)cc1
100 | O=C1CC(c2cccc(Cl)c2)c2cnn(-c3nc4ccccc4s3)c2N1 (centres undefined)
103 | CC(=O)C1=NN(c2ccccc2)C(c2ccc3c(c2)OCO3)N1C(C)(C)C (centres undefined)
120 | CCNCCC(=O)N1c2ccccc2Sc2ccc(C(F)(F)F)cc21
107 | CC(=O)Nc1ccc(N2C(=O)C(=O)/C(=C(/O)c3ccccc3)C2c2ccccc2)cc1 (centres undefined)
109 | O=C1Nc2ccc(S(=O)(=O)NC3CCCCC3)c3cccc1c23
92 | CC(C)c1ccc(NS(=O)(=O)c2cc(-c3noc(C4CC4)n3)cs2)cc1
126 | N#CC1(C#N)[C@H](c2ccc(Cl)c(Cl)c2)[C@@H](C(=O)C23CC4CC(CC(C4)C2)C3)N2c3ccccc3C=C[C@@H]21
110 | Cn1c(=O)c2c(nc3n2CC(C24CC5CC(CC(C5)C2)C4)=NN3Cc2ccccc2)n(C)c1=O
97 | CCOC(=O)N1CCN(c2ncnc3c2c(-c2ccccc2)cn3-c2cccc(Cl)c2)CC1
100 | O=C(c1ccc(C2Nc3ccccc3S(=O)(=O)N2)cc1)N1CCN(C2CCCCC2)CC1 (centres undefined)
99 | CN(C)CCNC(=O)CN1C(=O)CN(C(=O)Nc2ccccc2)c2ccccc21
106 | Cc1nn(-c2nc3ccc(Br)cc3s2)c2c1C(c1ccccc1)CC(=O)N2 (centres undefined)
101 | CCc1cc(Sc2ccc(NC(=O)Nc3ccc(Br)cc3)cc2)n2ncnc2n1
96 | Cc1nn(-c2ccc3nnc(C)n3n2)c(C)c1CCC(=O)NC1CCCCC1
102 | Cc1nnc(-c2csc(S(=O)(=O)N3CCC4(CC3)OCCO4)c2)o1
97 | CCn1ncc(Cl)c1C(=O)N1CCCC1c1cc(C)no1 (centres undefined)
108 | N#CC1=CN(c2ccc3c(c2)CCC3)c2ccccc2S1(=O)=O
112 | COc1ccc(NC(=O)Cn2c3ccccc3c(=O)c3cc(OC)ccc32)c(OC)c1
110 | Cc1ccc(-n2nc3c(c2NC(=O)c2cc4ccccc4oc2=O)CSC3)c(C)c1
110 | COc1cccc(C(=O)Nc2cc(F)c3nc(N4CCCC4)ccc3c2)c1
112 | CC1=C(C)CS(=Nc2ccc(C)cc2)N(S(=O)(=O)c2ccccc2)C1 (centres undefined)
104 | O=C1NCCCn2nc(C3CCN(S(=O)(=O)c4ccc5c(c4)CCC5)CC3)cc21
98 | O=C(NCc1c(-c2ccc(F)cc2)nc2n1CCS2)c1ccc(F)cc1
103 | CCCc1nc2sc3c(N4CCCCC4)ncnc3c2c2c1COC(C)(C)C2
106 | O=C1C2CCCCC2C(=O)N1CN1CCOCC1 (centres undefined)
99 | O=S(=O)(c1cccc(Cl)c1)N1CCN(c2ncnc3c2nnn3-c2cccc(F)c2)CC1
103 | Cc1cc(C)cc(-n2c(CN3CCN(C(=O)NC(C)C)CC3)nc3cccnc32)c1
124 | CC(=O)C1=C(C)NC(SCC(=O)c2ccc(-c3ccccc3)cc2)=C(C#N)C1c1sccc1C (centres undefined)
131 | CC(=O)N[C@H]1[C@H](Oc2ccc(C)cc2)O[C@H](COC(C)=O)[C@@H](OC(C)=O)[C@@H]1OC(C)=O
119 | COc1ccc2c(c1)-c1c(ssc1=S)C(C)(C)N2C(=O)CN1CCC(C(N)=O)CC1
111 | COc1cccc(C2Nc3ccccc3C(c3ccccc3)(c3ccccc3)O2)c1OC (centres undefined)
98 | COc1cc(OC)cc(-n2nnc(-c3nsc(Nc4ccc(C)cc4)n3)c2C)c1
109 | CCOC(=O)C1=C(C)NC(=O)NC1c1cc(Br)c(OC(C)=O)c(OC)c1 (centres undefined)

The last six entries of the part before come first, to join the parts:
GIV Gai3 FP | Compound
124 | CC(=O)C1=C(C)NC(SCC(=O)c2ccc(-c3ccccc3)cc2)=C(C#N)C1c1sccc1C (centres undefined)
131 | CC(=O)N[C@H]1[C@H](Oc2ccc(C)cc2)O[C@H](COC(C)=O)[C@@H](OC(C)=O)[C@@H]1OC(C)=O
119 | COc1ccc2c(c1)-c1c(ssc1=S)C(C)(C)N2C(=O)CN1CCC(C(N)=O)CC1
111 | COc1cccc(C2Nc3ccccc3C(c3ccccc3)(c3ccccc3)O2)c1OC (centres undefined)
98 | COc1cc(OC)cc(-n2nnc(-c3nsc(Nc4ccc(C)cc4)n3)c2C)c1
109 | CCOC(=O)C1=C(C)NC(=O)NC1c1cc(Br)c(OC(C)=O)c(OC)c1 (centres undefined)
101 | Cc1ccc2nc(-c3ccccc3NC(=O)c3ccc(N(C)C)cc3)ccc2c1
107 | CCC(=O)N1CCCN(S(=O)(=O)CC)CC1
107 | Cc1noc(C)c1C1CCCN1C(=O)Nc1cccc(Cl)c1 (centres undefined)
98 | COc1cc(C2C(C(=O)OCC(C)C)=C(C)NC3=C2C(=O)CC(c2cccs2)C3)cc([N+](=O)[O-])c1O (centres undefined)
105 | Cc1sc(-c2nnc(C(=O)N3CCCCC3)o2)cc1S(=O)(=O)NC1CC1
108 | Cc1ccc(S(=O)(=O)c2cnc(N3CCN(Cc4ccc5c(c4)OCO5)CC3)nc2N)cc1
104 | Cn1c(CNC(=O)c2ccccc2F)nnc1SCC(=O)N1N=C(c2cccs2)CC1c1ccc(F)cc1 (centres undefined)
108 | Cc1ccc2c(c1)-c1c(ssc1=S)C(C)(C)N2C(=O)c1ccccc1Cl
109 | Cc1nn(-c2nc3ccccc3o2)c2c1C(c1cc(Cl)ccc1F)CC(=O)N2 (centres undefined)
103 | COc1ccccc1Oc1ccnc(-c2cccc(C(=O)NCCc3ccccc3)c2)n1
110 | Cc1[nH]n(-c2ccccc2)c(=O)c1C=Nc1cc([N+](=O)[O-])cc([N+](=O)[O-])c1
107 | Cc1cccc(CNC2=NCCNC23CCN(S(=O)(=O)c2cccs2)CC3)c1
105 | Cc1ccc(-c2noc(C3CC3)n2)cc1S(=O)(=O)N1CCC(C(=O)NC2CC2)CC1
109 | CC(=O)OC[C@H]1O[C@@H](Oc2ccccc2)[C@H](OC(C)=O)[C@@H](OC(C)=O)[C@@H]1OC(C)=O
109 | COc1ccc(N2CCN(C(=O)CSc3nc4[nH]ncc4c(=O)n3-c3ccc(F)c(Cl)c3)CC2)cc1
101 | COc1ccc(S(=O)(=O)Nc2cccc(-c3nnc(-c4ccccc4)o3)c2)cc1OC
118 | COc1cc2c(cc1NC(=O)Cc1ccc([N+](=O)[O-])cc1)oc1ccccc12
107 | Cc1cc(N2CCCC2)nc(Nc2ccc(NS(C)(=O)=O)cc2)n1
107 | COc1ccc(Cc2noc(-c3cc(-c4ccncc4)nc4ccccc34)n2)cc1
111 | CCn1c(SCC(=O)Nc2ccc(C(C)C)cc2)nc2c(=O)[nH]cnc21
125 | Cc1ccc2c(=O)c(-c3nc(-c4ccccc4C)no3)cn(CC(=O)N3CCc4ccccc4C3)c2n1
100 | OC(c1ccc(C(F)(F)F)cc1)c1cccnc1 (centres undefined)
107 | O=C(NC1CC1)C1CCCN1C(=O)c1ccc(NS(=O)(=O)c2ccc(Cl)cc2)cc1 (centres undefined)
100 | Cc1ccc(C)c(NCc2c(O)c(Br)cc3oc4c(c23)CCCC4)c1
101 | COc1cc(Nc2nc(SCC(=O)n3nc(N)cc3C)nc3ccccc23)cc(OC)c1
112 | CCc1ccccc1-n1c(SCC(=O)Nc2cc(OC)ccc2OC)nc2n[nH]c(C)c2c1=N
108 | Cc1ccc([N+](=O)[O-])cc1S(=O)(=O)n1nnc2ccccc21
105 | CCOC(=O)c1[nH]c(C)c(CCC(=O)N2CCCC(C(=O)NCCN(CC)CC)C2)c1C (centres undefined)
110 | O=C1Nc2ccc(S(=O)(=O)N3CCCCC3)c3cccc1c23
101 | O=C(c1cn2c3c(cccc3c1=O)CC2)N1CCc2ccccc2C1
119 | CC(C)CCn1c(CCCC(=O)N2CCc3ccccc32)nc2cccnc21
106 | Cc1cc(C2CCCN2C(=O)NCc2ccco2)no1 (centres undefined)
105 | COc1ccc(-n2nnc3c(N4CCN(S(=O)(=O)c5ccc(OC)cc5)CC4)ncnc32)cc1
112 | Cc1ccc(C)c(S(=O)(=O)Nc2ccc3oc4c(c3c2)C(=O)CCC4)c1
111 | CCN(CC)c1ncnc2sc(C(=O)NCc3ccccc3OC)c(C)c12
97 | C#CCOc1ccc(C2CC(=O)Nc3c2c(C)nn3-c2ccc3nnc(C)n3n2)cc1 (centres undefined)
107 | CCOc1ccc(NC(=O)N2CC(=O)N(CC(=O)Nc3ccc(C)c(Cl)c3)c3ccccc32)cc1
105 | COc1ccc(-c2ccc(/C=C3/SC(N)=NC3=O)o2)c([N+](=O)[O-])c1
99 | Fc1cccc(Nc2nc(NC3CCCC3)nc3c2cnn3-c2ccccc2)c1
103 | O=C(C1CCN(c2cnc(N3CCSCC3)nc2)CC1)N1CCCCC1
109 | CCOc1ccc(-c2cc3cc(OC)c(OC)cc3c(Cc3cccc4ccccc34)n2)cc1
100 | CC(=O)N1CCCc2cc(S(=O)(=O)N3CCCC(C(=O)NCc4ccccn4)C3)ccc21 (centres undefined)
100 | CCN(C(=O)Cn1cnc2c(sc3ncccc32)c1=O)c1ccccc1

Looked up by structure from the list above (two):
GIV Gai3 FP | Compound
105 | COc1ccc(-c2ccc(/C=C3/SC(N)=NC3=O)o2)c([N+](=O)[O-])c1
119 | CC(C)CCn1c(CCCC(=O)N2CCc3ccccc32)nc2cccnc21

Not all compounds are listed. The share of hits here may be higher or lower than overall.
